Screening results: PubChem, several laboratories
Mtb growth: M. tuberculosis H37Rv growth inhibitors, H37Rv strain (AID 1626); 220,000 tested, 0.95% active; inhibition, % at 10 µM; hits with a dose series show IC50 in µM; M. tuberculosis H37Rv growth inhibition; higher % means a stronger effect;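 active = confirmed in a dose series; inconclusive = inhibition above 80% but not taken into the dose series; inactive = below 80% or under 30% at every dose of the series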;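 also: bacteria incubated seven days before Alamar blue readout; 0% = bacteria only wells and 100% = bacteria with antibiotic wells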
YopH inh: blocks Yersinia enterocolitica YopH tyrosine phosphatase | fluorescence Ex485/Em525 | inhibition, %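 (about 10 µM by stock and volumes)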 | 140,000 tested, 0.16% active | AID 898;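 active = inhibition of 50% or more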;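 also: controls were vehicle for no effect and minimum signal wells for full effect; inactives centre near -20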
Arbovirus inh: arbovirus infection inhibition. arbovirus infection cell-based antiviral screen. inhibition, % at 10 µM. 200,000 tested, 0.37% active;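 active = inhibition from about 30%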;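 also: bluetongue infection of BSR cells; cell survival read as ATP light after 72 h; 0% = infected wells without compound and 100% = uninfected wells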
Mtb betalactam: beta-lactam sensitization of Mtb H37Rv | M. tuberculosis H37Rv growth with meropenem, percent inhibition; hits of this screen are not shown here | inhibition, % at 25 µM | 330,000 tested, 0.27% active;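 active = about 74% or more and at least 40 points above the plate without the antibiotic, then above 30% in a dose series; inconclusive = first-round hits that could not be retested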;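 also: growth measured after seven days incubation then overnight dye step; 0% = bacteria only wells and 100% = bacteria with antibiotic; twin plates without the antibiotic show which effects depend on it; some results filed as inactive read as strong as hits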
RecA splice inh: inhibitors of M. tuberculosis RecA intein splicing; cell-free RecA intein splicing, fluorescence; 290,000 tested, 0.75% active; P9WHJ3; AID 2221; inhibition, %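 (about 9 µM by stock and volumes)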; in the data active = inhibition above about 30%; inconclusive = no clear call, values can overlap the other calls;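 also: 0% = vehicle wells and 100% = reference inhibitor control wells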
Target sequence (P9WHJ3 whole entry, looked up, canonical isoform): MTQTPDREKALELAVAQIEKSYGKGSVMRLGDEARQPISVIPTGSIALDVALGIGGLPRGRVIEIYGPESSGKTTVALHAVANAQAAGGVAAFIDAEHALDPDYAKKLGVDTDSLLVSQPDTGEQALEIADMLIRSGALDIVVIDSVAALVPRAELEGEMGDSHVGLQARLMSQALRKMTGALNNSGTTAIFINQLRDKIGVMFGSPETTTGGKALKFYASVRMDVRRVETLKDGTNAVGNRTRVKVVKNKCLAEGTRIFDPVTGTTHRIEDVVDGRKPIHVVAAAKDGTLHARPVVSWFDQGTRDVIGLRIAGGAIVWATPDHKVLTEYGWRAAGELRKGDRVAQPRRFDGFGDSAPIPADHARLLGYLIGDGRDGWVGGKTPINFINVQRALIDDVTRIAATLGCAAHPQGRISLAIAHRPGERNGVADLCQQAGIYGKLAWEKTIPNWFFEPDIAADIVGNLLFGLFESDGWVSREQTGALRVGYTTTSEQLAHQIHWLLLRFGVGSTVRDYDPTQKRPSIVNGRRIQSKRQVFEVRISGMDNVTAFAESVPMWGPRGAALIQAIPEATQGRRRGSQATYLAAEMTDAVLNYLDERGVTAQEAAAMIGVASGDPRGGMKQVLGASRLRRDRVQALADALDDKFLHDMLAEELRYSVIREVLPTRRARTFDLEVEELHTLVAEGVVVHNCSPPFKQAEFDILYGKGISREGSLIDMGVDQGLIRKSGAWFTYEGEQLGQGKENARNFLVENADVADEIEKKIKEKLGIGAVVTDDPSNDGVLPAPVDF
An asterisk follows results filed as active; i = inactive; ? = inconclusive; . = no result given; & = joins results of further samples. An excerpt; the hit share may differ from the screen's.

Abbreviations: A = Mtb growth; B = YopH inh; C = Arbovirus inh; D = Mtb betalactam; E = RecA splice inh
[1] Cc1cc(=O)oc2cc(O)ccc12
  A = 26.7%; B = .; C = .; D = -13.7; E = -27.6

[2] CC1(C)O[C@@H]2C[C@H]3[C@@H]4C[C@H](F)C5=CC(=O)C=C[C@]5(C)[C@@]4(F)[C@@H](O)C[C@]3(C)[C@]2(C(=O)CO)O1
  A = 7.0%; B = -14.4; C = 14.4; D = -3.0; E = 2.3

[3] COC(=O)N/N=C/c1c[n+]([O-])c2ccccc2[n+]1[O-]
  A = .; B = .; C = .; D = 99.7; E = -8.2

[4] CCCCOc1cc(C(=O)OCCN(CC)CC)ccc1N
  A = .; B = .; C = .; D = -10.3&-7.6; E = 0.7

[5] CN(C)CCCSc1ccccc1NC(=O)/C=C/c1ccccc1
  A = -5.5%&-8.9%; B = .; C = -10.2; D = -4.6; E = -0.9

[6] Cc1c(C)n(Cc2ccccc2)c2ccc(C(=O)OCCN(C)C)cc12
  A = -14.0%; B = .; C = -21.0; D = 19.3; E = 3.0

[7] CC(=O)Oc1ccc2c(C)cc(=O)oc2c1
  A = 74.8%; B = -11.0; C = 8.4; D = 77.2; E = -27.5

[8] COc1cc(N)c(Cl)cc1C(=O)N[C@@H]1CCN(CCCOc2ccc(F)cc2)C[C@@H]1OC
  A = 4.4%&10.1%; B = .; C = -1.6; D = .; E = .

[9] CCCC(=O)O[C@]1(C(=O)COC(C)=O)CC[C@H]2[C@@H]3C[C@H](F)C4=CC(=O)C=C[C@]4(C)[C@@]3(F)[C@@H](O)C[C@@]21C
  A = 2.5%; B = -24.0; C = 26.0; D = 0.0; E = 2.6

[10] CC(C)(C)NCC(O)COc1cccc2c1C[C@H](O)[C@H](O)C2 (stereo partly specified)
  A = -11.3%; B = -38.7; C = -2.2; D = -3.4; E = -1.1

[11] COc1cc(C2Oc3cc(C4Oc5cc(O)cc(O)c5C(=O)C4O)ccc3OC2CO)ccc1O (stereo unspecified)
  A = 6.5%; B = 1.5; C = 19.8; D = 5.0; E = 2.0

[12] CCCCN(CCCC)CCCOC(=O)c1ccc(N)cc1
  A = -0.3%; B = -28.8; C = -17.4; D = -2.0; E = -0.1

[13] O=C(O)Cc1cn(-c2ccccc2)nc1-c1ccc(Cl)cc1
  A = 1.0%; B = .; C = 5.5; D = -2.9; E = .

[14] CCCOc1ccc(C(=O)OCCN(CC)CC)cc1N
  A = .; B = .; C = .; D = 7.0; E = 1.5

[15] COc1ccc(-c2oc3c(CC=C(C)C)c(O[C@@H]4O[C@H](CO)[C@@H](O)[C@H](O)[C@H]4O)cc(O)c3c(=O)c2O[C@@H]2O[C@@H](C)[C@H](O)[C@@H](O)[C@H]2O)cc1
  A = 7.7%&-2.4%; B = .; C = 2.9; D = -1.9; E = -1.7

[16] CN[C@@H]1[C@H](O)[C@H](NC)[C@H]2O[C@@]3(O)C(=O)C[C@@H](C)O[C@H]3O[C@@H]2[C@H]1O
  A = .; B = .; C = .; D = ?; E = -3.1

[17] CC(Cc1cccc(C(F)(F)F)c1)NCCOC(=O)c1ccccc1 (stereo unspecified)
  A = .; B = .; C = .; D = 1.6&4.2; E = 1.1

[18] CN(C)S(=O)(=O)n1cc(/C=C(\NC(=O)c2ccccc2)C(=O)NCCCn2ccnc2)c2ccccc21
  A = .; B = .; C = .; D = -7.5; E = -6.2

[19] CCCC(=O)O[C@]1(C(=O)CCl)[C@@H](C)C[C@H]2[C@@H]3CCC4=CC(=O)C=C[C@]4(C)[C@@]3(F)C(=O)C[C@@]21C
  A = -0.3%; B = -36.0; C = 6.3; D = 3.3; E = 18.2

[20] CN(C)CC/C=C1/c2ccccc2COc2ccc(CC(=O)O)cc21
  A = -12.1%; B = .; C = .; D = -2.1; E = -1.2

[21] COc1ccc(C(=O)c2ccccc2)c(O)c1
  A = 7.2%; B = -20.3; C = -0.7; D = 7.5; E = 1.0

[22] CCCC1(c2ccccc2)NC(=O)N(CC(=O)N(C)Cc2c(F)cccc2Cl)C1=O (stereo unspecified)
  A = .; B = .; C = .; D = 6.7; E = 2.2

[23] O=C(NC1CCN(CCc2c[nH]c3ccccc23)CC1)c1ccccc1
  A = .; B = .; C = .; D = -10.4; E = -0.6

[24] CCN(CC)CC1CCCCN1CC(=O)N1c2ccccc2C(=O)Nc2cccnc21 (stereo unspecified)
  A = -2.1%&6.0%; B = .; C = 5.6; D = -3.7; E = -0.3

[25] N=c1nc(N2CCCCC2)cc(N)n1O
  A = -4.9%&-11.5%; B = -21.3; C = -1.8; D = -3.8&-1.5; E = -0.3&-1.2

[26] Cc1scc2c1N(C(=O)CN1CCN(C)CC1)c1ccccc1NC2=O
  A = 0.1%; B = .; C = -4.7; D = -7.1; E = -2.7

[27] CCCOc1ccc2nc(NC(=O)OC)[nH]c2c1
  A = .; B = -42.7; C = -6.2; D = .; E = 0.6

[28] O=C(CCN1CCN(CCO)CC1)N1c2ccccc2Sc2ccc(C(F)(F)F)cc21
  A = .; B = .; C = .; D = 0.2; E = 1.4

[29] CCCCCCCCCCCCCCCC(O)C(N)CO (stereo unspecified)
  A = -0.5%; B = -25.6; C = -44.4; D = 15.1; E = 13.5

[30] Nc1c2ccccc2nc2ccccc12
  A = -1.7%; B = .; C = .; D = 72.4&41.2; E = i

Reprinted at random: 7 compounds from above.
Abbreviations: A = Mtb growth; B = YopH inh; C = Arbovirus inh; D = Mtb betalactam; E = RecA splice inh
[16] CN[C@@H]1[C@H](O)[C@H](NC)[C@H]2O[C@@]3(O)C(=O)C[C@@H](C)O[C@H]3O[C@@H]2[C@H]1O
  A = .; B = .; C = .; D = ?; E = -3.1

[29] CCCCCCCCCCCCCCCC(O)C(N)CO (stereo unspecified)
  A = -0.5%; B = -25.6; C = -44.4; D = 15.1; E = 13.5

[18] CN(C)S(=O)(=O)n1cc(/C=C(\NC(=O)c2ccccc2)C(=O)NCCCn2ccnc2)c2ccccc21
  A = .; B = .; C = .; D = -7.5; E = -6.2

[26] Cc1scc2c1N(C(=O)CN1CCN(C)CC1)c1ccccc1NC2=O
  A = 0.1%; B = .; C = -4.7; D = -7.1; E = -2.7

[19] CCCC(=O)O[C@]1(C(=O)CCl)[C@@H](C)C[C@H]2[C@@H]3CCC4=CC(=O)C=C[C@]4(C)[C@@]3(F)C(=O)C[C@@]21C
  A = -0.3%; B = -36.0; C = 6.3; D = 3.3; E = 18.2

[22] CCCC1(c2ccccc2)NC(=O)N(CC(=O)N(C)Cc2c(F)cccc2Cl)C1=O (stereo unspecified)
  A = .; B = .; C = .; D = 6.7; E = 2.2

[20] CN(C)CC/C=C1/c2ccccc2COc2ccc(CC(=O)O)cc21
  A = -12.1%; B = .; C = .; D = -2.1; E = -1.2

One compound at a time, from the list above. Values in the order: Mtb growth, YopH inh, Arbovirus inh, Mtb betalactam, RecA splice inh
O=C(O)Cc1cn(-c2ccccc2)nc1-c1ccc(Cl)cc1 as listed: 1.0%, ., 5.5, -2.9, .
Cc1scc2c1N(C(=O)CN1CCN(C)CC1)c1ccccc1NC2=O as listed: 0.1%, ., -4.7, -7.1, -2.7

Next part.
Abbreviations: A = Mtb growth; B = YopH inh; C = Arbovirus inh; D = Mtb betalactam; E = RecA splice inh
[31] O=C(c1ccccn1)N(Cc1cccs1)C1(C(=O)NC2CCCCC2)CCCCC1
  A = 3.7%; B = .; C = -0.3; D = -14.2; E = 4.8

[32] O=C(O)c1cc(=O)c2ccccc2o1
  A = .; B = .; C = .; D = -0.2; E = 0.8

[33] CCN(CCCCOC(=O)c1ccc(OC)c(OC)c1)C(C)Cc1ccc(OC)cc1 (stereo unspecified)
  A = 1.0%; B = -10.3; C = 1.8; D = -4.9; E = 1.7

[34] CC(C)NNC(=O)c1ccncc1
  A = -4.4%; B = -33.2; C = 8.9; D = 1.1; E = -0.9

[35] Cc1nc2c3ccccc3nc(NNC(=O)CCC(=O)N3CCN(c4ccccc4F)CC3)n2n1
  A = .; B = .; C = .; D = 3.2; E = -0.8
